Source: PubChem BioAssay (Center for Chemical Genomics, University of Michigan)
CDC25B CDK2 inh: primary biochemical HTRF screen for blockers of M-phase inducer phosphatase 2 binding to CDK2/cyclin A; P30305+P24941; HTRF CDC25B-CDK2/CyclinA binding, anti-His/anti-Flag; stronger effect = higher value; z-score (no concentration beside the values); hit rate 0.72% among 94,000;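 note: score is relative to mean and SD of negative controls; strong numbers were not always called active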
TAR Tat displ: TAR RNA-Tat peptide displacers, HIV-1, primary screen, biochemical, FRET, FAM/TAMRA-labeled Tat; hit rate 0.6% among 100,000; AID 1259389, 2018; z-score (concentration not given with the values); HIV-1 TAR RNA, Tat peptide displacement FRET; stronger effect = higher value;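 note: score is relative to mean and SD of negative controls; some compounds called inactive have numbers as strong as hits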
The depositor's hits bear a star; . = not tested or not shown.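 Rule for the calls: active = z-score from 3 up in half or more of its runs; inactive = the rest.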

SMILES	CDC25B CDK2 inh	TAR Tat displ
CC(C)NS(=O)(=O)c1ccc2c(c1)oc(=O)n2C	0.62	.
CCC1(C)CC(=O)c2c(ccc3oc(C(=O)NCCCOC)c(C)c23)O1 (centres undefined)	-1	-0.08
CC(C)NC(=O)N1CCN(Cc2nc3cccnc3n2-c2ccccc2)CC1	.	1.3
Cc1cnc(NC(=O)c2c(O)c3cccc4c3n(c2=O)CCC4)s1	.	1.4
CC1=C(C(=O)OCC2CCCO2)C(c2cc3c(cc2Cl)OCO3)C2=C(CCCC2=O)N1 (centres undefined)	-1.4	0.84
NC(=O)Cn1nnc2sc(-c3ccccc3)cc2c1=O	-1	-0.79
COc1cc2c(cc1OC)C(c1ccccc1)=NC1(CCCC1)C2	0.98	0.22
O=C(c1cc2c(s1)-c1ccsc1CC2)N1CCN(c2ccccn2)CC1	.	0.09
O=C(O)CCc1nc2cccnc2n1C1CC1	1	0.81
Cc1nc(-c2ccccc2)sc1-c1ccc(SCC(=O)Nc2nccs2)nn1	.	1.5
O=C(NC1CCN(Cc2ccccc2)CC1)C1c2ccccc2C(=O)N2CCc3ccccc3C12 (centres undefined)	1	.
O=C(/C=C/c1ccc(OC(F)(F)F)cc1)NCc1ccco1	-1.7	.
CCCc1nc(SCc2cc(=O)c3cc(Cl)ccc3[nH]2)n[nH]1	.	-0.74
CCC(C(=O)N1CCCC1)n1nc(C)c2c(C)n(-c3ccccc3)nc2c1=O (centres undefined)	.	1.7
CNC(=O)C(=O)NCC(c1ccc2c(c1)OCO2)N1CCOCC1 (centres undefined)	.	2
Cc1oc2ncnc(N3CCCCC3)c2c1C(=O)O	0.42	1.3
CCOC(=O)c1c(NS(=O)(=O)c2cccc3nsnc23)sc(C)c1C	-1.6	.
CN1CCN(CCNC(=O)c2ccc(N3CCc4ccccc43)s2)CC1	.	0.72
CC(CCC(=O)NCC(=O)O)C1CCC2C3C(O)CC4CC(O)CCC4(C)C3CCC12C (centres undefined)	-3	.
COCCN1C(=O)c2oc3ccccc3c(=O)c2C1c1ccc(SC)cc1 (centres undefined)	-1.2	0.54
CCC1(CC)NC(=S)N(c2ccc(C)cc2)N1	-0.44	.
O=C(Nc1ccc(Cl)cc1)OCCOCc1c(F)cccc1Cl	-0.53	.
COC(=O)C1C(c2ccc(OC)c(OC)c2)c2c([nH][nH]c2=O)CC1(C)O (centres undefined)	-0.55	0.76
COCCOC(=O)C1=C(C)NC2=C(C(=O)CCC2)C1c1ccccc1OCc1ccccc1 (centres undefined)	-1.4	0.54
CCOC(=O)N1CCN(c2cc(NCCO)c3c4c(onc24)-c2ccccc2C3=O)CC1	-4	2.6
C#CCOc1ccc(C2C(C#N)=C(N)Oc3cc4c(cc32)OCO4)cc1OCC (centres undefined)	-0.88	.
Cc1c(CNCc2ccco2)c(C(=O)O)c(C)n1-c1ccc(Cl)cc1	.	0.77
CCCCOC(=O)C1=C(C)NC2=C(C(=O)CCC2)C1c1ccc(OCCC)c(OC)c1 (centres undefined)	-0.84	1.5
COC(=O)C1=NN(c2ccc(C)cc2)C2C(=O)N(c3ccc(Cl)cc3)C(=O)C12 (centres undefined)	-1.2	0.22
O=C1c2cccc3cc([N+](=O)[O-])cc(c23)C(=O)N1Cc1ccccc1	-2.2	.
Cc1cc(NC(=O)c2ccc(-c3noc(C)n3)cc2)no1	.	0.86
C=CCOC(=O)c1c(N)oc2c(-c3ccc(F)cc3)c3c(C(=O)OCC=C)c(N)oc3cc12	-0.45	.
CC(=O)N1CCN(c2nnc(N)s2)CC1	-1.3	0.78
Cc1c(C(=O)NCCCN2CCOCC2)oc2ccc3c(c12)C(=O)CC1(CCCCC1)O3	-0.78	0.86
COc1c(C(=O)O/N=C/c2c(Cl)cccc2Cl)csc1Cl	0.4	.
CN1CCN(c2nnc(Cc3cccnc3)c3ccccc23)CC1	-0.89	-1
CC1=Nn2c(Cn3c(C(F)(F)F)nc4ccccc43)nnc2SC1	.	1.3
Cn1c2c(c(=O)n(C)c1=O)C(c1ccc(O)cc1)C1=C(CCCC1=O)N2 (centres undefined)	0.35	.
CCCN1CCN(c2nnc(-n3cccc3CNCc3ccc(C)cc3)s2)CC1	.	1.4
COc1ccc(-c2nc(NCc3cccc(OC)c3)c3ccccc3n2)cc1	.	0.07
O=C(NC1CC1)c1nn(-c2ccc(F)cc2)nc1CO	-0.73	-1.4
CCCCN(C(=O)Cn1ncc2c1-c1ccccc1OC2)C1CCN(C(C)=O)CC1	-0.63	1.9
Fc1cccc(-n2ncc3c2ncn2nc(COc4ccc(Cl)cc4)nc32)c1	-0.25	0.97
Cc1ccc2nc(-c3ccco3)c(Nc3ccc4c(c3)OCCO4)n2c1	-0.06	.
COc1ccc(N(C)C(=O)c2nn(-c3ccc(OC)cc3)c(=O)c3c2c2ccccc2n3C)cc1	-0.94	.
Cc1ccc(CSc2ccc(-c3cccnc3)nn2)cc1	.	1.9
CCC(Sc1nc(=O)cc(N)n1-c1ccccc1)C(=O)Nc1ccc(Cl)cn1 (centres undefined)	-2.4	.
CCOC(=O)C1=C(C(=O)OCC)SC(=C2C(=S)C(C)(C)N(C(C)=O)c3cc(C)ccc32)S1	-0.39	1.6
CC(=O)N1CC(C)Oc2ccc(S(=O)(=O)Nc3ccccc3Br)cc21 (centres undefined)	.	4
CCS(=O)(=O)N1CCCc2ccc(NS(=O)(=O)c3ccc(F)cc3F)cc21	.	0.21
CCOc1ccc(-c2noc(CSc3nc4cc5c(cc4c(=O)n3C3CC3)OCO5)n2)cc1	.	2.8
N#CC(CO)Cc1ccc(N2CCCCC2)c([N+](=O)[O-])c1 (centres undefined)	-1.7	.
N#Cc1nc(COc2ccc(Br)cc2)oc1NCCc1ccccc1	4.6	1.4
O=S(=O)(NCCc1csc2nc(-c3ccccc3F)nn12)c1ccc(Cl)cc1	.	-0.01
O=C(CSc1nnc(Cn2nc(-c3ccccc3)ccc2=O)o1)c1ccccc1	.	0.34
Cn1cc(NC(=O)N2CCCCC2)c2ccccc2c1=O	.	0.17
Cc1ccc(-c2cn3cccnc3n2)cc1NC(=O)Nc1ccccc1	-0.4	.
Fc1ccc(C2=CC(c3cccs3)n3nnnc3N2)cc1 (centres undefined)	-1.8	.
CC1Cc2ccccc2N1C(=O)C(=O)c1c[nH]c2ccccc12 (centres undefined)	-0.97	2.8
CN(C1CCCCC1)S(=O)(=O)N1CCCC(C(=O)N2CCN(c3ccccc3)CC2)C1 (centres undefined)	.	5.1
Going on with the list.
SMILES	CDC25B CDK2 inh	TAR Tat displ
O=C(NCc1ccccc1)c1cnn2c(C(F)F)cc(-c3ccccc3)nc12	0.3	.
O=C(CC1CCCC1)Nc1cc(F)c2nc(N3CCOCC3)ccc2c1	.	0.37
COc1ccc(-c2cc(Nc3cc(C)ccc3O)nc(C)n2)cc1	1.5	2
Cc1c(C(=O)NCc2cccs2)oc2c1-c1[nH]ncc1CC2	-1.1	-0.25
CCC(=O)N1c2ccccc2CC1C(=O)N1CCC(N2CCCCC2)CC1 (centres undefined)	.	2
O=C(CN1C(=O)CSC1=O)Nc1ccc(Cl)cc1	-0.97	-0.88
COc1ccc(-c2nnc3c4cnn(-c5cccc(C)c5)c4ncn23)cc1OC	0.22	-0.42
CCOC(=O)c1sc(=S)n(-c2cccc(C)c2)c1N	.	0.82
Cc1ccsc1CNC(C)(C)CO	0.14	1
CCCN(Cc1ccc(C)cc1)Cc1cc(=O)c2cc(F)ccc2[nH]1	.	-0.41
O=c1sc(-c2ccccc2)nc(O)c1Cc1ccccc1	-0.57	.
COc1ccc(C2CC(=O)Nc3c(-c4ccccc4OC)csc32)cc1OC (centres undefined)	.	1.5
CN1CCN(S(=O)(=O)c2ccc3c(c2)C(C)(C)C(=O)N3C)CC1	.	1.8
CC(C)(C)c1ccc(C(=O)Nc2cc(C#N)c3sc4ccccc4n3c2=O)cc1	-1.4	2.4
CCOC(=O)c1c(C)n(-c2ccccc2OC)c2c1cc(O)c1ccccc12	0.41	-1.2
COc1ccc(OC)c(CNS(=O)(=O)c2c(C)nc3sc(C)cn3c2=O)c1	.	0.03
CCc1nnc(SCC(=O)Nc2ccc(F)c(Cl)c2)c2cc3occc3n12	.	3.5
O=C(c1cccc(NC2=NC3CS(=O)(=O)CC3S2)c1)N1CCC(Cc2ccccc2)CC1 (centres undefined)	-2.3	.
Cc1cc2c(cc1C)C(c1cc(F)ccc1F)CC(=O)N2 (centres undefined)	-2.3	.
O=C1CSC(=NC2CC2)N1Cc1cccs1	-2.3	.
Cn1nnnc1SCCNCc1ccc(-c2ccccc2)o1	0.01	-0.37
Cc1cc(C(=O)O)oc(=O)c1	-1.4	.
CCOC(=O)c1c(SC)n[nH]c1N	-1.2	1.8
C=Cc1ccc(Cn2c(C)c(CNC3CCCCC3)c(C(=O)O)c2C)cc1	-0.12	-0.55
CCCNC(=O)c1c(O)nc2c(C)cccn2c1=O	-1.2	0.21
CC1=C(C(=O)OC(C)C)C(c2ccc(N(C)C)cc2)C2=C(CCCC2=O)N1 (centres undefined)	-0.04	0.78
CC(C)n1nnc2cc(C(=O)Nc3ccc(Cl)cc3)ccc21	-2	.
CCOC(=O)c1nn(-c2ccc(F)cc2)c(=O)cc1N1CCCC(C)C1 (centres undefined)	.	1.9
O=C(NC1CCCCC1)c1cccc(C(=O)NC2CCCCC2)n1	.	2
CC(=O)c1ccc(C#CCOC(=O)Nc2ccccc2)s1	-0.62	.
O=C(CC(=O)Nc1ccc2nc3n(c(=O)c2c1)CCCCC3)Nc1ccc(F)c(Cl)c1	-0.92	0.07
CCCc1nc(SC)ncc1C(=O)Nc1cc(F)ccc1F	.	-0.55
O=C(c1[nH]nc2c1CCc1ccccc1-2)N1CCCC1	.	-0.38
Cc1nc(CNC(=O)[C@H]2CSCN2C(=O)Cc2cccs2)cs1	.	1.2
CCc1nnc2c(NCCC(C)C)nc3ccccc3n12	.	-0.86
CSc1cccc(NC(=O)CSC2=NS(=O)(=O)c3ccccc3N2)c1	.	1.7
COCCn1c(CCC(=O)O)ccc1-c1ccc(F)cc1	-1.3	-0.86
Cn1c(C(=O)NCc2ccc3c(c2)OCO3)c(N2CCCC2=O)c2cc(F)ccc21	.	1.3
O=C(CCc1nnc2ccc(NCc3ccc(Cl)cc3)nn12)NCc1ccc2c(c1)OCO2	.	1.5
O=C(CCCN1C(=O)c2cccnc2Sc2ccccc21)N1CCc2ccccc21	.	-0.21
Cc1ccccc1CSCC1Nc2ccc(C(=O)O)cc2NC1=O (centres undefined)	.	-1.9
O=C1CCCC2=C1C(c1cccs1)n1ncnc1N2 (centres undefined)	-1.9	.
NC(=O)c1c(NC(=O)c2cc(-c3ccc(Br)cc3)on2)sc2c1CCCC2	-0.02	.
CC(=O)N1CCOc2ccc(S(=O)(=O)Nc3ccc(S(N)(=O)=O)cc3)cc21	-1.2	1
O=C(NC1CCCCC1)c1cnc(N2CCCC2)nc1	-0.88	2.4
O=C(Nc1ccccc1O)c1nc2ccccc2oc1=O	-2.1	-8
CC(C)(C)NC(=S)N/N=C1/CCCc2occc21	-0.64	.
CCC(C)(C(=O)NC1CCCCC1)N(Cc1ccco1)C(=O)Cc1cccs1 (centres undefined)	0.44	.
CC(C)C(=O)Nc1cc(F)c2nc(N3CCCCC3)ccc2c1	.	-3
CCn1c(NC2CCCCC2)nc2c1c(=O)n(C)c(=O)n2C	-0.39	.
Cc1cc(NC(=O)CN2C(=O)CN(c3ccccc3)C2=O)no1	-1.2	0.38
CCOC(=O)c1sc(Nc2nc(N(C)C)nc(N(C)C)n2)nc1C	-0.71	0.09
O=C(O)C1C2CCC(O2)C1C(=O)N1CCN(c2ccccc2)CC1 (centres undefined)	-0.45	.
COc1ccc(NC(=O)c2cnn3c2NC(c2ccco2)CC3C(F)(F)F)c(OC)c1 (centres undefined)	-1.4	-14
COc1ccc(-c2nc(S(=O)(=O)c3ccccc3)c(N3CCCCC3)o2)cc1OC	1.3	0.93
COc1cccc(Nc2nc(N3CCCC3)nc3c2cnn3C)c1	.	0.69
Clc1ccc(Sc2ncnc3ccsc23)cc1	-0.47	.
O=C(Nc1nc2ccc(S(=O)(=O)N3CCCCC3)cc2s1)c1ccc2ccccc2n1	.	0.71
CCN1C(=O)C2(c3ccccc31)C(C(=O)Nc1ccc(F)cc1)CC1CSCN12 (centres undefined)	.	-0.49

Entries shown so far that contain an aryl methoxy group (14):
SMILES	CDC25B CDK2 inh	TAR Tat displ
COc1cc2c(cc1OC)C(c1ccccc1)=NC1(CCCC1)C2	0.98	0.22
COC(=O)C1C(c2ccc(OC)c(OC)c2)c2c([nH][nH]c2=O)CC1(C)O (centres undefined)	-0.55	0.76
CCCCOC(=O)C1=C(C)NC2=C(C(=O)CCC2)C1c1ccc(OCCC)c(OC)c1 (centres undefined)	-0.84	1.5
COc1c(C(=O)O/N=C/c2c(Cl)cccc2Cl)csc1Cl	0.4	.
COc1ccc(-c2nc(NCc3cccc(OC)c3)c3ccccc3n2)cc1	.	0.07
COc1ccc(N(C)C(=O)c2nn(-c3ccc(OC)cc3)c(=O)c3c2c2ccccc2n3C)cc1	-0.94	.
COc1ccc(-c2cc(Nc3cc(C)ccc3O)nc(C)n2)cc1	1.5	2
COc1ccc(-c2nnc3c4cnn(-c5cccc(C)c5)c4ncn23)cc1OC	0.22	-0.42
COc1ccc(C2CC(=O)Nc3c(-c4ccccc4OC)csc32)cc1OC (centres undefined)	.	1.5
CCOC(=O)c1c(C)n(-c2ccccc2OC)c2c1cc(O)c1ccccc12	0.41	-1.2
COc1ccc(OC)c(CNS(=O)(=O)c2c(C)nc3sc(C)cn3c2=O)c1	.	0.03
COc1ccc(NC(=O)c2cnn3c2NC(c2ccco2)CC3C(F)(F)F)c(OC)c1 (centres undefined)	-1.4	-14
COc1ccc(-c2nc(S(=O)(=O)c3ccccc3)c(N3CCCCC3)o2)cc1OC	1.3	0.93
COc1cccc(Nc2nc(N3CCCC3)nc3c2cnn3C)c1	.	0.69
